StopGo reporter = lowers the luciferase signal of an FMDV 2A StopGo reporter; human cells with a luciferase reporter of 2A StopGo recoding; control for the full effect not named in the record; Potency, µM (titrated, usually from 57.9 µM), for inactives: at the top dose signal change, negative = less light; 1.2% of 410,000 active; active = well fitted falling curve with a large enough effect; inconclusive = small, poorly fitted or top-dose-only effect; inactive = no such curve, though single readings can be large or run the other way; tested in HEK293T cells; further: on the % scale 0 is the no-effect control and ±100 the full control effect; nearly all actives have a fitted effect of over 45% in size; luciferase light after 4 h
RE007 growth inh = less growth of the S. pombe RE007 Vpr strain; S. pombe RE007 Vpr strain, BacTiter-Glo ATP luminescence, 24 h; control for the full effect not named in the record; Potency, µM (highest dose often 92.2 µM), without a hit: at the top dose activity change, negative = less growth; 0.21% of 360,000 active; active = well fitted falling curve with a large enough effect; inconclusive = small, poorly fitted or top-dose-only effect; inactive = no such curve, though single readings can be large or run the other way;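 further: on the % scale 0 is the no-effect control and ±100 the full control effect; nearly all actives have a fitted effect of over 50% in size; the assay follows cell death caused by Vpr and the record does not say whether a fall means rescue or toxicity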
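Fission yeast RE007 carrying one integrated HIV-1 vpr copy, seeded at OD 0.01 in PMG+AL medium with 23 nL pinned compound. Grown 24 h at 30 degrees; viability read by BacTiter-Glo luminescence after 5 min.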
SARS PLpro yeast = blocks SARS-CoV papain-like protease in a yeast assay | S. cerevisiae expressing SARS-CoV PLpro, growth rescue; control for the full effect not named in the record | Potency, µM (top dose mostly 32.9 µM), without a hit: top-dose activity, positive = growth rescue | 0.19% of 330,000 active; active means well fitted rising curve with a large enough effect; inconclusive means small, poorly fitted or top-dose-only effect; inactive means no such curve, though single readings can be large or run the other way; further: 0% is about no effect; nearly all actives have a fitted effect of over 55% in size; growth read by luminescence after 48 h
Numbers without * were called inactive; ? = inconclusive; & = joins results of further samples; [ ] = dose if it differs, or a comment. Potency means the concentration at half of the fitted maximal effect.

The first 3 entries as a preview:
Values run as follows: StopGo reporter, RE007 growth inh, SARS PLpro yeast
- Cc1ccc(N2CC(C(=O)Nc3ccccc3OC(F)F)CC2=O)cc1 (stereo not drawn)
    7%, -6%, 1%
- CCN(CC)C(=O)CSc1nnnn1-c1ccc(F)c(Cl)c1
    0%, 12%, 0%
- CC(=O)NC(CC(=O)OCC(=O)c1cc(C)ccc1C)c1ccccc1 (stereo not drawn)
    -17%, 15%, 0%

All compounds of this part, previewed entries included:
Values run as follows: StopGo reporter, RE007 growth inh, SARS PLpro yeast
- Cc1ccc(N2CC(C(=O)Nc3ccccc3OC(F)F)CC2=O)cc1 (stereo not drawn)
    7%, -6%, 1%
- CCN(CC)C(=O)CSc1nnnn1-c1ccc(F)c(Cl)c1
    0%, 12%, 0%
- CC(=O)NC(CC(=O)OCC(=O)c1cc(C)ccc1C)c1ccccc1 (stereo not drawn)
    -17%, 15%, 0%
- CC(C)CC1Nc2ncnc(N3CCOCC3)c2N(Cc2ccc(Cl)cc2)C1=O (stereo not drawn)
    -21%&-23%, -16%&7%, -23%
- COCCN(Cc1cc2cc(C)ccc2n2nnnc12)C(=S)Nc1ccccc1C
    -19%, 0%, 3%
- CN(CC(=O)Nc1ccccc1Cl)C(=O)COC(=O)CSc1ccc(Cl)cc1
    -9%, 4%, -5%
- Cc1cccc(N2C(=O)N3[C@H]4c5ccccc5OC[C@@H]4[C@@H](c4ccccc4)[C@@]3(C)C2=O)c1
    -24%, -6%, 7%
- Cc1cc(OC(=O)c2ccccc2)c([N+](=O)[O-])c(=O)[nH]1
    5%, 3%, 1%
- CC(C)CCN1C(N(C)C)=NC[C@@H]1C
    0%, 6%, 0%
- COc1ccc(S(=O)(=O)N(C)C[C@@H]2Oc3ccc(NS(C)(=O)=O)cc3C(=O)N([C@@H](C)CO)C[C@H]2C)cc1
    17%, 7%, -6%
- CC(C)(C)[C@H]1COC(=O)CCCC/C=C\C[C@H](CC(=O)NCCO)C(=O)N1
    2%, 5%, 6%
- CCOC(=O)c1nnn(-c2nonc2N)c1-c1ccccc1Cl
    4%, 8%, 1%
- O=C(Nc1ccc(Cl)cn1)C1CC1
    -1%, 2%, 3%
- CC(C)n1ncc2c(C(=O)NCc3cccnc3)cc(C3CC3)nc21
    31%[activator], -5%, 1%
- Cc1ccc2c(c1)NC(=O)[C@@]1(C)[C@@H](c3ccccc3)[C@H]3COc4ccc(Cl)cc4[C@@H]3N1C2=O
    0%, 6%, -45%
- CCN(CC)S(=O)(=O)N1CCC(C(=O)N2CCC3(CC2)OCCO3)CC1
    -18%, 13%, -2%
- Nc1c(C(=O)NCc2ccco2)nnn1CC(=O)Nc1ccc2c(c1)OCO2
    -15%, -3%, 1%
- C[C@H](CO)N1C[C@H](C)[C@@H](CN(C)S(=O)(=O)c2ccc(F)cc2)Oc2c(NC(=O)Nc3ccccc3)cccc2C1=O
    1%, 7%, -10%
- COc1ccc(CC(=O)N(C)CC(=O)Nc2ccc(F)cc2)cc1S(=O)(=O)N1CCOCC1
    -11%, -3%, 1%
- C[C@H]1CN([C@@H](C)CO)C(=O)c2cccc(NC(=O)Nc3ccc(C(F)(F)F)cc3)c2O[C@@H]1CN(C)C(=O)Nc1ccc(F)cc1
    -23%, 9%, -5%
- C[C@H](CO)N1C[C@H](C)[C@@H](CN(C)S(=O)(=O)c2cccs2)Oc2c(NS(=O)(=O)c3ccc(F)cc3)cccc2C1=O
    14%, -7%, 0%
- COc1ccc(C(=O)NCC(=O)N/N=C/c2cccc(OC(=O)c3ccco3)c2)cc1OC
    -8%, 3%, -1%
- CC1CC(C)CN(C(=O)c2ccc(Br)c(S(=O)(=O)N3CCOCC3)c2)C1 (stereo not drawn)
    12%, 8%, -8%
- COc1cc(C=O)c(Br)cc1OCC(=O)NCc1ccccc1
    37%[activator], -2%, -1%
- COc1ccc(CCNC(=O)Cn2c(=O)n(-c3cc(F)ccc3F)c(=O)c3sccc32)cc1OC
    -17%, 9%, 1%
- C[C@H]1CN([C@@H](C)CO)C(=O)Cc2cc(NC(=O)C3CC3)ccc2O[C@H]1CN(C)Cc1ccc(C(=O)O)cc1
    -1%, -2%, 4%
- CCSc1nnc(NC(=O)CN2C(=O)NC3(CCCC3)C2=O)s1
    -10%, -10%, 3%
- COCCn1c(SCC(=O)NC2CCCC2)nc2cccnc21
    -8%, 3%, 1%
- C#CCOCCOCCOCCNc1nc(N2CCN(C(=O)CCCCCCCCCCNC(=O)[C@@H](CCSC)n3cc(CCO)nn3)CC2)nc(N2CCN(C(=O)CCCCCCCCCCNC(=O)[C@H](CCSC)n3cc(CCO)nn3)CC2)n1
    -24%, -10%, -13%
- O=C(O)c1ccc2c(c1)S(=O)(=O)c1cc(Cl)ccc1C2=O
    36%[activator], 0%, -3%
- O=C(NC(=O)c1cc([N+](=O)[O-])ccc1Cl)C1=C(N2CCCC2)COC1=O
    20µM*, -9%, 4%
- O=S(=O)(c1ccc(Cl)cc1)N1CCN=C1SCc1cccnc1
    -2%, -6%, 0%
- c1ccc(-c2sc3ccccc3c2-c2ccc(OCCN3CCCCC3)cc2)cc1
    -13%, -8%, 0%
- COc1ccc(OCC(=O)NNC(=O)C(=O)Nc2ccccc2)cc1
    10%, -5%, -1%
- CC1CC(C)CN(S(=O)(=O)c2ccc(NC(=O)c3ccc(=O)[nH]c3)cc2)C1 (stereo not drawn)
    3%, 3%, 6%
- C/C(=N\NC(=O)c1ccncc1)c1cccs1
    77%[activator], -3%, -1%
- C[C@@H]1CN([C@H](C)CO)C(=O)c2cc(NS(=O)(=O)c3cccs3)ccc2O[C@H]1CN(C)Cc1ccccc1
    38%[activator], -5%, 12%
- COc1ccc(C2(C)NC(=O)N(CC(=O)NC3CCCC3)C2=O)cc1OC (stereo not drawn)
    -23%, 10%, 4%
- Cc1ccc(NC2=CC(=O)C(=O)c3ccccc32)c(C)c1
    ?, 3%, -7%
- CCOc1ncccc1C(=O)Nc1nnc(C)s1
    10%, 25%, -2%
- Cc1cc(O)c2c(c1)C(=O)C13C(=C2O)C(=O)[C@H]2[C@@H](O)[C@@H]1[C@H]1[C@H](O)[C@@H]3C(=O)C3=C(O)c4c(O)cc(C)cc4C(=O)C312 (stereo partly drawn)
    -3%, -5%, 2%
- CC(C)COc1ccc(C(=O)Nc2cc(S(=O)(=O)N3CCOCC3)ccc2N2CCCC2)cc1
    -20%, -6%, 3%
- COc1ccc(-c2sc3cc(OC)c(OC)cc3c2C#CCCO)cc1
    -23%, -7%, -1%
- CC(=O)c1cccc(NC(=O)C(C)OC(=O)CCn2c(C)csc2=O)c1 (stereo not drawn)
    -13%, 6%, 0%
- CC(C)C[C@H]1CN=C(Nc2ccccc2)N1CC1CCC(C(C)(C)C)CC1 (stereo partly drawn)
    ?, 2%, -24%
- C[C@H](CO)N1C[C@H](C)[C@@H](CN(C)Cc2ccc(C(=O)O)cc2)Oc2c(NS(=O)(=O)c3ccccc3)cccc2C1=O
    -8%, -7%, -11%
- CCN(CC)C(=O)[C@H]1C[C@H](CC(=O)NC(C)(C)C)C(=O)N2CCc3c([nH]c4cc(-c5ccco5)ccc34)[C@]12C
    -19%, -3%, -1%
- Cn1cncc1C#Cc1c(-c2ccsc2)sc2ccccc12
    -27%, 6%, -8%
- CCn1c(C)nc2cc(C(=O)NNC(=O)c3ccc(C)cc3)ccc21
    0%, -19%, -5%
- CCC[C@@H](CN1CCC[C@H]1CN1C(N)=NC[C@@H]1Cc1ccccc1)N1C[C@@H]([C@H](C)CC)N(CCCC2CCCC2)C1=N
    ?, 62%, -16%
- O=C(COC(=O)c1cc[n+]([O-])cc1)Nc1ccccc1Sc1ccccc1
    -16%, -16%, 1%
- Cc1ccc(Sc2ccc(S(=O)(=O)Nc3ccc(CC(=O)O)cc3)cc2)cc1C
    -13%, 2%, 4%
- CCC(C)C(=O)Nc1nnc(SCC(=O)NC(C)(C)C)s1 (stereo not drawn)
    -9%, 1%, 1%
- CCCCNc1c(-c2cccc(-c3ccc(OC)cc3)c2)nc2cc(C)ccn12
    25µM*, -27%, -3%
- CC(Oc1ccc(C#N)cc1)C(=O)NC1CCCC1 (stereo not drawn)
    -7%, -16%, -4%
- O=c1cc2ncc(-n3cc([N+](=O)[O-])cn3)cn2[nH]1
    -12%, 3%, 11%
- CCOc1ccc(C2=CC(=O)C[C@H](c3ccc(OC)cc3)C2)cc1
    27%, 13%, -1%
- CCOC(=O)[C@@H]1[C@H]2COc3cc(OC)ccc3[C@@H]2N2C(=O)N(c3ccccc3)C(=O)[C@]12C
    -6%, 3%, 3%
- COc1ccc(C#Cc2c(-c3ccccc3)n(C)c3ccccc23)cc1
    0%, 9%, -2%
- CN(CCCNC(=O)c1cc2c(=O)[nH]c3ccccc3c2n1C)Cc1ccccc1
    18%, -17%, -11%

(cont.)
Values run as follows: StopGo reporter, RE007 growth inh, SARS PLpro yeast
- COc1ccc(NC(=O)CNc2cc(C)ccc2C)cc1S(=O)(=O)N1CCOCC1
    -1%, -2%, -10%
- COc1ccc(CC(=O)OC(C)C(=O)Nc2c(C)n(C)n(-c3ccccc3)c2=O)cc1OC (stereo not drawn)
    -10%, -13%, -3%
- Cc1nc(Cc2nnc(SCC(=O)N3CCN(c4ccc(F)cc4)CC3)o2)cs1
    -13%, 3%, -3%
- CN(CC(=O)NCCc1ccccc1)CC(=O)Nc1cccc(F)c1
    -10%, 8%, -2%
- Cc1ccc(C2(C)NC(=O)N(CC(=O)N3CCN(S(=O)(=O)c4cccc([N+](=O)[O-])c4)CC3)C2=O)cc1 (stereo not drawn)
    0%, 5%, 1%
- CCC(CO)Oc1cc(NC(=O)Cc2ccccc2)c2ncn(C(C)C)c2c1 (stereo not drawn)
    -9%, 13%, 1%
- Cc1cccc(OCC(=O)N(Cc2ccco2)c2c(N)n(Cc3ccccc3)c(=O)[nH]c2=O)c1
    -16%, 12%, 13%
- CS(=O)(=O)c1ccc(Cl)c(NC(=O)COC(=O)C23CC4CC(CC(C4)C2)C3)c1
    -16%, -12%, -10%
- CCN(C(=O)Cn1cnc2c1c(=O)n(C)c(=O)n2C)C1CCCCC1
    -18%, -3%, 2%
- COc1ccccc1C1CC(c2ccc(NS(C)(=O)=O)cc2)=NN1C(=O)c1ccccc1 (stereo not drawn)
    -18%, 6%, 0%
- COc1ccc(S(=O)(=O)N2CCCCCC2)cc1NC(=O)c1ccccc1F
    6%, 8%, 3%
- O=C1c2ccc(Oc3cccc([N+](=O)[O-])c3)cc2C(=O)N1c1ccccn1
    -6%, -2%, 0%
- CC(=O)Nc1ccc(/C=N/N2C(=O)NC(C)(c3ccc(OC(F)F)cc3)C2=O)cc1 (stereo not drawn)
    -5%, 1%, 0%
- COc1ccc([C@H]2CC(=O)C=C(c3cccc(CO)c3)C2)cc1OC
    ?, -2%, -10%
- C=COCCNC(=S)N1CCOCCOCCN(C(=S)NCCOC=C)CCOCCOCC1
    15%, 6%, 2%
- Cc1ccc(NC(=O)CN2C(=O)NC(C)(C3CC3)C2=O)c(C)c1 (stereo not drawn)
    4%, -13%, 1%
- O=C(CSc1ccc(S(=O)(=O)N2CCOCC2)cn1)Nc1ccc(OC(F)F)cc1
    -35%, 20%, 3%
- COC(=O)[C@]1(Cc2ccccc2)N[C@H](CN(C)C(=O)Nc2ccc(OC)cc2)[C@@H]2C(=O)N(C)C(=O)[C@@H]21
    -1%, -17%, -3%
- COc1cc(C(=O)OCC(=O)NC2CC2)ccc1OCCC(C)C
    -19%, 8%, -1%
- Cc1noc(C)c1NC(=O)N(C)C[C@H]1Oc2ccc(NS(=O)(=O)c3ccc(F)cc3)cc2C(=O)N([C@H](C)CO)C[C@@H]1C
    -20%, -1%, 3%
- CCOC(=O)[C@H](CCc1ccccc1)N[C@@H](C)C(=O)N1C(C(=O)O)C[C@@H]2CCC[C@@H]21 (stereo partly drawn)
    -20%, -1%, 0%
- CCCC(=O)NNC(=O)CCC(=O)Nc1ccccc1Cl
    -20%, 17%, 1%
- COC(=O)C1=C(c2ccc(Cl)c(C(F)(F)F)c2)C[C@@H]2CC[C@H]1N2C
    13%, -10%, 1%
- Cc1nn(-c2ccc(F)cc2)c(Cl)c1/C=C/C(=O)N1CCNC(=O)C1
    7%, 24%, -1%
- CC(C)C(=O)Nc1nnc(SCc2cccc(F)c2)s1
    7%, -3%, -2%
- COc1ccc(OC)c(C(C)NC(=O)Nc2ccccc2)c1 (stereo not drawn)
    -4%, 3%, 12%
- CCN1CCN(c2ccc(S(=O)(=O)N3CCOCC3)cc2NC(=O)C(C)Oc2ccc(F)cc2)CC1 (stereo not drawn)
    -3%, -13%, 0%
- O=C(NN=Cc1c(O)ccc2ccccc12)c1ccc2c(c1)OCO2
    20%, 3%, 1%
- O=C1OC(c2ccc(Cl)cc2)=N/C1=C\C=C\c1ccco1
    -4%, 4%, 0%
- Cc1cccc(C)c1NC(=O)CN(C)C(=O)C1=COCCO1
    -5%, 7%, -3%

Screening data: PubChem BioAssay, National Center for Advancing Translational Sciences (NCATS)

Only part of the results is shown; the hit share may differ from the screen's.
